Assay outcomes deposited in PubChem BioAssay by Fisher Drug Discovery Resource Center.
NPYLR7 agonist: agonists of mosquito NPYLR7 receptor, primary screen, cell-based, Aedes aegypti, calcium fluorescence, mosquito biting behavior; Aedes aegypti neuropeptide Y-like receptor 7 (NPYLR7); HEK293T NPYLR7/Galpha15, GCaMP6s calcium fluorescence; activation, % at 10 µM; hit rate 0.15% among 270,000; in the data active = activation above about 40%;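 note: 0% = vehicle and 100% = reference agonist at the receptor; some compounds past the cut are filed as inactive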
NPYLR7 agonist max-min: recorded beside NPYLR7 agonist, whose call it bears; activation, %; measured here: Max-Min RFU normalised activation; some inactives read as strong as hits;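 span of the calcium signal over five minutes; 0% = vehicle and 100% = native peptide agonist; compound fluorescence can raise it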
* = called active by the depositor; & = joins results of further samples. Only part of the results is shown; count on the stated rates, not on these rows.

For CCCCCCCOc1ccc(C(=O)Nc2ccc3[nH]cc(CCN4CCN(c5cccc(C(F)(F)F)c5)CC4)c3c2)cc1 the results were NPYLR7 agonist 16 and NPYLR7 agonist max-min 10.
For Nc1nnc2c([nH]c3ccccc32)c1-c1ccccc1 the results were NPYLR7 agonist 3 and NPYLR7 agonist max-min 3.
CCOC(=O)C1=C(NC(=O)Cc2ccccc2)c2ccccc2CC1C(C)C (stereo unspecified) was read as NPYLR7 agonist 1 and NPYLR7 agonist max-min 1.
CCC1CN(S(=O)(=O)c2cc(F)ccc2C(=O)OC)CCO1 (stereo unspecified) was read as NPYLR7 agonist 1 and NPYLR7 agonist max-min 1.
CC(=O)C(C)n1c(=O)c2c(nc3n(-c4ccccc4)c(-c4ccccc4)cn23)n(C)c1=O (stereo unspecified) was read as NPYLR7 agonist 8 and NPYLR7 agonist max-min 2.
CC(C)c1ccc(NC(=O)N2CCN(c3nc(-c4ccco4)nc4cc(Cl)ccc34)CC2)cc1 was read as NPYLR7 agonist -2 and NPYLR7 agonist max-min 5.
`COc1ccc(-c2nc3ccc(C)cn3c2NC(=O)Cc2ccccc2)cc1` gave NPYLR7 agonist -2 and NPYLR7 agonist max-min 5.
O=C(NC(c1ccc(Cl)cc1)c1cccnc1)C1CCN(CC2CC2)CC1 (stereo unspecified) was read as NPYLR7 agonist 13 and NPYLR7 agonist max-min 2.
Screening CCCNc1ccc(C#N)cc1NC(=O)Cc1cccc(O)c1 returned NPYLR7 agonist 5 and NPYLR7 agonist max-min 2.
O=C(C(c1ccccc1)c1ccccc1)N1CCSC1c1ccc(C(F)(F)F)cc1 (stereo unspecified) was read as NPYLR7 agonist -2 and NPYLR7 agonist max-min 3.
`CC1(C)CC(Nc2ccc(C(F)(F)F)cn2)CC(C)(C)N1` gave NPYLR7 agonist 12 and NPYLR7 agonist max-min 10.
Screening CC1(C)CC(CN2CCC(CCC(=O)Nc3ccccc3Cl)CC2)CCO1 (stereo unspecified) returned NPYLR7 agonist -16 and NPYLR7 agonist max-min -15.
For Cc1sc2nc(C(C)Sc3nnc(-c4cccs4)n3C3CC3)[nH]c(=O)c2c1C (stereo unspecified) the results were NPYLR7 agonist 1 and NPYLR7 agonist max-min 6.
Screening O=C(CC1Nc2cccc3cccc(c23)NC1=O)Nc1ccc([N+](=O)[O-])cc1 (stereo unspecified) returned NPYLR7 agonist -3 and NPYLR7 agonist max-min 4.
For CCN(C(=O)c1ncoc1C(C)C)c1ccccc1C(=O)OC the results were NPYLR7 agonist 1 and NPYLR7 agonist max-min 2.
O=C(C1CC1)N1CCN(c2c3c(nc4ncnn24)CCCC3)CC1 was read as NPYLR7 agonist 5 and NPYLR7 agonist max-min 1.
`Cc1ncc(CN(C)c2ccc(S(N)(=O)=O)c3cccnc23)s1` gave NPYLR7 agonist -2 and NPYLR7 agonist max-min -6.
For COc1cc(COc2cc(N)c(Cl)cc2C(=O)CCC2CCN(CCNS(C)(=O)=O)CC2)cc(OC)c1 the results were NPYLR7 agonist -8 and NPYLR7 agonist max-min -11.
Cc1[nH]c2ccccc2c1CCNC(=O)N1CCC2(C1)OCCO2 was read as NPYLR7 agonist 14 and NPYLR7 agonist max-min 11.
CCCn1c(O)c(C=Nc2sc3c(c2C#N)CCC3)c(=O)[nH]c1=S was read as NPYLR7 agonist 7 and NPYLR7 agonist max-min 5.
`COc1cccc(C(=O)N2CCc3cc(OC)c(OC)cc3C2c2cccc(C(F)(F)F)c2)c1` (stereo unspecified) gave NPYLR7 agonist 20 and NPYLR7 agonist max-min 5.
For Cc1noc(C)c1C(=O)N1CCC(n2c(=O)oc3ccc(Cl)cc32)CC1 the results were NPYLR7 agonist -13 and NPYLR7 agonist max-min -11.
`Cc1ccc(C(=O)NCC(=O)NCc2ccc(C3OCCO3)cc2)cc1` gave NPYLR7 agonist 9 and NPYLR7 agonist max-min 7.
CC(C)(C)CC(C)(C)Nc1c(-c2cccc(F)c2)nc2ccc(Br)cn12 was read as NPYLR7 agonist 7&22 and NPYLR7 agonist max-min 6&24.
For CCCCN(Cc1cccn1Cc1ccc(Br)cc1)C(=O)CN(CCCOC)C(=O)Nc1ccccc1OC the results were NPYLR7 agonist -1 and NPYLR7 agonist max-min 4.
`O=C(Nc1nnc(Cc2ccc(F)cc2)s1)N1CCSCC1` gave NPYLR7 agonist 8 and NPYLR7 agonist max-min 5.
`O=C(Cc1cccs1)Nc1nonc1C(=O)N1CCCCC1` gave NPYLR7 agonist 1 and NPYLR7 agonist max-min -2.
Screening O=c1c(C(F)(F)F)cccn1Cc1csc(COc2ccc(Cl)cc2)n1 returned NPYLR7 agonist 3 and NPYLR7 agonist max-min 1.
Cc1cc(N2CCN(C(=O)c3ccc(-n4cc[nH]c4=S)cc3)CC2)nc(C(C)C)n1 was read as NPYLR7 agonist 15 and NPYLR7 agonist max-min 10.
For CCN(C(C)Cc1ccc(OC)cc1)S(=O)(=O)c1cccnc1 (stereo unspecified) the results were NPYLR7 agonist 4 and NPYLR7 agonist max-min 1.
Cc1nc(N2CCOCC2)c2c3c(sc2n1)CC(C)CC3 (stereo unspecified) was read as NPYLR7 agonist 3 and NPYLR7 agonist max-min 1.
`CC(C(=O)NC1CC2CCC1C2)N(c1ccc(Oc2ccccc2)cc1)S(C)(=O)=O` (stereo unspecified) gave NPYLR7 agonist 0 and NPYLR7 agonist max-min 0.
`COc1cccc(C(c2c(C)[nH]n(-c3ccccc3)c2=O)c2c(C)[nH]n(-c3ccccc3)c2=O)c1O` gave NPYLR7 agonist 21 and NPYLR7 agonist max-min 15.
FC(F)(F)c1cccc(CNCC2CC(c3ccc(Cl)cc3)=NO2)c1 (stereo unspecified) was read as NPYLR7 agonist -1 and NPYLR7 agonist max-min -7.
For Nc1c(C(=O)Nc2ccccc2)c2nc3ccccc3nc2n1/N=C\c1cccnc1 the results were NPYLR7 agonist 24 and NPYLR7 agonist max-min 18.
For CCCN(Cc1cccnc1)C(=O)Nc1cc(OC)ccc1OC the results were NPYLR7 agonist 3 and NPYLR7 agonist max-min 1.
Cc1noc(C)c1CN1c2ccccc2SCC1C (stereo unspecified) was read as NPYLR7 agonist 3 and NPYLR7 agonist max-min 1.
For Cc1ccc(C(=O)NCc2ccc(-c3ccc(O)cc3)cc2)o1 the results were NPYLR7 agonist -7 and NPYLR7 agonist max-min -8.
`Cc1nn(-c2ccccc2)c2sc(C(=O)OCC(=O)Nc3sc4c(c3C#N)CCCC4)cc12` gave NPYLR7 agonist -7 and NPYLR7 agonist max-min -10.
For Cc1ncc(C(=O)N2CCOC(C(F)(F)F)C2)c(-c2ccccc2)n1 (stereo unspecified) the results were NPYLR7 agonist -5 and NPYLR7 agonist max-min -8.
CCC(C)C(N)C1=NC(C(=O)N[C@H](CC(C)C)C(=O)N[C@H](CCC(=O)O)C(=O)N[C@H](C(=O)N[C@H]2CCCCNC(=O)[C@H](CC(N)=O)NC(=O)[C@@H](CC(=O)O)NC(=O)[C@H](Cc3cnc[nH]3)NC(=O)[C@@H](Cc3ccccc3)NC(=O)[C@H]([C@@H](C)CC)NC(=O)[C@@H](CCCN)NC2=O)[C@@H](C)CC)CS1 (stereo partly specified) was read as NPYLR7 agonist 10 and NPYLR7 agonist max-min 9.
Screening CCS(=O)(=O)NCC(c1cccs1)S(=O)(=O)c1ccccc1 (stereo unspecified) returned NPYLR7 agonist -4 and NPYLR7 agonist max-min -4.
O=C(O)Cc1cc(-c2cc3ccccc3o2)on1 was read as NPYLR7 agonist -4 and NPYLR7 agonist max-min -6.
For O=C(NCC(O)c1ccc(Cl)cc1)C1CCCN1c1ncccn1 (stereo unspecified) the results were NPYLR7 agonist 2 and NPYLR7 agonist max-min 1.
O=C1O[C@@H](CO)[C@H](O)[C@@H](O)[C@@H]1O was read as NPYLR7 agonist -13 and NPYLR7 agonist max-min -15.
COc1ccc(C(=O)N2CCCC(N3CCN(c4ccc(F)cc4)CC3)C2)o1 (stereo unspecified) was read as NPYLR7 agonist 15 and NPYLR7 agonist max-min 12.
`COc1ccc(/C(C)=N/NC(=O)CSc2nnc(-c3ccccc3)n2-c2ccccc2)cc1OC` gave NPYLR7 agonist -6 and NPYLR7 agonist max-min -13.
For CN(C)CC1(O)CCN(C(=O)c2cccc(-c3ncc[nH]3)c2)C1 (stereo unspecified) the results were NPYLR7 agonist 18 and NPYLR7 agonist max-min 18.
For CCC(=O)Nc1ccc(OCC(=O)N2CCO[C@@H]3CCCC[C@H]32)cc1 the results were NPYLR7 agonist -4 and NPYLR7 agonist max-min -8.
`Cc1ccc(F)c(N2C(=O)CSC2c2cccc(NC(=O)C(Cl)c3ccccc3)c2)c1` (stereo unspecified) gave NPYLR7 agonist 14 and NPYLR7 agonist max-min 12.
Screening COc1cccc(CN2CCCCC2CCn2cccn2)c1O (stereo unspecified) returned NPYLR7 agonist 3 and NPYLR7 agonist max-min 1.
`CCOC(=O)C(N=Nc1ccccc1OC)=C(C)O` gave NPYLR7 agonist -3 and NPYLR7 agonist max-min -10.
Screening O=C1C2C3C=CC(C3)C2C(=O)N1Cc1ccccc1 (stereo unspecified) returned NPYLR7 agonist 2 and NPYLR7 agonist max-min -3.
For FC(F)(F)C(Oc1nc(NC2CCCCC2)nc(N2CCOCC2)n1)C(F)(F)F the results were NPYLR7 agonist -2 and NPYLR7 agonist max-min -11.
For O=C1C(=Cc2ccc(Cl)cc2)CCC1=C1SCCS1 the results were NPYLR7 agonist 9 and NPYLR7 agonist max-min 10.
COc1ccc(NC(=O)CSc2nc3c(c(=O)n2-c2ccc(OC)c(OC)c2)SCC3)cc1 was read as NPYLR7 agonist -6 and NPYLR7 agonist max-min -9.
O=C(O)Cc1cc(-c2ccc(F)cc2)on1 was read as NPYLR7 agonist -3 and NPYLR7 agonist max-min -5.
Screening O=C(CC1C(=O)NCCN1C/C=C/c1ccccc1)NCc1ccc(F)cc1 (stereo unspecified) returned NPYLR7 agonist 11 and NPYLR7 agonist max-min 3.
COc1ccc(C(=O)NC(C)c2ccccc2)cc1OC1CCN(C(C)=O)CC1 (stereo unspecified) was read as NPYLR7 agonist -6 and NPYLR7 agonist max-min -8.
CC(C)(C)c1noc(CCC(=O)NC2CCCCCCC2)n1 was read as NPYLR7 agonist 0 and NPYLR7 agonist max-min 0.

Next part; the last 6 above are carried over.
For O=C1C(=Cc2ccc(Cl)cc2)CCC1=C1SCCS1 the results were NPYLR7 agonist 9 and NPYLR7 agonist max-min 10.
COc1ccc(NC(=O)CSc2nc3c(c(=O)n2-c2ccc(OC)c(OC)c2)SCC3)cc1 was read as NPYLR7 agonist -6 and NPYLR7 agonist max-min -9.
O=C(O)Cc1cc(-c2ccc(F)cc2)on1 was read as NPYLR7 agonist -3 and NPYLR7 agonist max-min -5.
Screening O=C(CC1C(=O)NCCN1C/C=C/c1ccccc1)NCc1ccc(F)cc1 (stereo unspecified) returned NPYLR7 agonist 11 and NPYLR7 agonist max-min 3.
COc1ccc(C(=O)NC(C)c2ccccc2)cc1OC1CCN(C(C)=O)CC1 (stereo unspecified) was read as NPYLR7 agonist -6 and NPYLR7 agonist max-min -8.
CC(C)(C)c1noc(CCC(=O)NC2CCCCCCC2)n1 was read as NPYLR7 agonist 0 and NPYLR7 agonist max-min 0.
For O=C(c1cc(F)cc(F)c1)N1CCOC(COc2ccc(F)cc2)C1 (stereo unspecified) the results were NPYLR7 agonist 3 and NPYLR7 agonist max-min 0.
NC(=O)c1ccccc1OCCCOc1ccc(Cl)cc1 was read as NPYLR7 agonist 3 and NPYLR7 agonist max-min 2.
`COC(=O)C1CCCN1C(=O)C12CC3CC(CC(C3)C1)C2` (stereo unspecified) gave NPYLR7 agonist -4 and NPYLR7 agonist max-min -8.
`COc1ccc(CNC(=O)CSc2nc3c(-c4ccccc4)c[nH]c3c(=O)n2C)cc1` gave NPYLR7 agonist 1 and NPYLR7 agonist max-min -2.
COc1ncncc1NC(=O)N(C)CCc1cccs1 was read as NPYLR7 agonist 4&-1 and NPYLR7 agonist max-min 7&-1.
Cc1cc(N2CCCC(N)CC2)nc(-c2ccccc2)n1 (stereo unspecified) was read as NPYLR7 agonist 1 and NPYLR7 agonist max-min 0.
For CN=C(NC#N)NCCSCc1csc(N=C(N)N)n1 the results were NPYLR7 agonist 1 and NPYLR7 agonist max-min -10.
For COC(=O)C1=NN[C@@](C)(C(=O)OC)[C@H]1c1ccccc1 the results were NPYLR7 agonist 1 and NPYLR7 agonist max-min 2.
For CCCCn1c(C)c(C)n2c3c(=O)n(CC(=O)OC)c(=O)n(C)c3nc12 the results were NPYLR7 agonist 18 and NPYLR7 agonist max-min 6.
For Cc1noc(-c2cccc(C(F)(F)F)c2)c1C(=O)NCCSCc1ccco1 the results were NPYLR7 agonist -2 and NPYLR7 agonist max-min 9.
Screening CN(C)C(C)(C)CNCC1CCCCCCC1 returned NPYLR7 agonist 0 and NPYLR7 agonist max-min -6.
For CCCc1cc(NCCN(C)C)n2nc(C)c(-c3ccccc3)c2n1 the results were NPYLR7 agonist 1 and NPYLR7 agonist max-min 9.
Cc1ccc(CN(CCc2c[nH]c3ccccc23)C(=O)CN(C(=O)C2C[C@H]2c2ccccc2)C2CC2)cc1 (stereo partly specified) was read as NPYLR7 agonist 3 and NPYLR7 agonist max-min 7.
For CCCCC(CC)C(=O)N1CCC2(CC1)C(=O)N(CC(=O)NCCc1ccc(Cl)cc1Cl)CN2c1ccccc1 (stereo unspecified) the results were NPYLR7 agonist 18 and NPYLR7 agonist max-min 22.
